# E coli growth = inhibitors of Escherichia coli growth | OD600, 23 h; active compounds read low | OD600 absorbance (concentration not given with the values) | 330,000 compounds, 0.21% hits | AID 1053175;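 active = OD600 absorbance below the run mean of sample wells minus 3.6 SD, in any replicate, cut at about 0.56 in these data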;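 note: stock transfer was 300 nL into about 60 µL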
# rRNA inh HTS = inhibitors of bacterial rRNA selective over humanized ribosomes. E. coli WT GFP vs humanized-ribosome RFP mutants, fluorescence, 24 h; active compounds read low; DMSO median 0, no signal -100. GFP signal change (wild-type ribosome), % (concentration not given with the values). 350,000 compounds, 1.6% hits. AID 720706;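 active = significant combined selectivity score with lowered wild-type GFP, culture density cut under 30%, mutant RFP and density less affected; inactive = any of these conditions unmet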; note: one replicate is shown; some compounds called inactive have numbers as strong as hits
# Vif A3G = HIV-1 Vif–A3G interaction blockers – biochemical, TR-FRET, GST-Vif 1-94, biotin-A3G peptide, dose response retest, primary screen (AID 1117319). TR-FRET GST-Vif / biotin-A3G peptide binding; higher % means a stronger effect; test concentration not given here; strong numbers were not always called active. inhibition, %; hits with a dose series show IC50 in µM. 260,000 compounds, 0.57% hits;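 active = above the screen mean plus three standard deviations and confirmed in dose response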;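 note: Vif residues 1-94 fused to GST binding biotinylated APOBEC3G peptide 110-148; 0% = full assay without inhibitor and 100% = GST in place of GST-Vif; retest series ran down from 100 µM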
# FGF22 binding = binders of recombinant human FGF22 by thermal shift; Q9HCT0; 340,000 compounds, 1.5% hits; SYPRO orange fluorescence; percent of sucrose octasulfate shift, DMSO zero; calls only at 9.99 µM;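 active = melting point raised past a set limit in the mean and every replicate; three in four hits are not shown here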
# Target sequence (Q9HCT0 whole entry, looked up): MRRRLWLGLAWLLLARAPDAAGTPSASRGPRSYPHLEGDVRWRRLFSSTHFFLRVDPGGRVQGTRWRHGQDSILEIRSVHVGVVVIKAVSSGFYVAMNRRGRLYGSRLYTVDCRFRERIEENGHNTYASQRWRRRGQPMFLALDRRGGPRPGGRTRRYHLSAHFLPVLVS
# AF4-AF9 inh = inhibitors of human MLL-AF4/AF9 interaction. AID 651704. AlphaScreen, biotin-AF4 peptide binding to FLAG-AF9. P42568. 350,000 compounds, 0.47% hits. inhibition, % at 10 µM;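 active = every replicate reaching a set inhibition limit, whatever the replicate mean, cut at about 25% in these data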;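 note: 0% = plate neutral control median and 100% = total signal loss; the record names both 10 and 1 µM as test concentration; the first replicate is given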
# HNF4A DNA FP = change in binding of human HNF4 alpha to DNA. P41235. HNF4a-FITC DNA binding, fluorescence polarization, 1 h. activity change, % at 10 µM. 360,000 compounds, 0.3% hits. AID 1224865; in the data active = activity change above about 30%, passing the limit was not always enough;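 note: controls were the assay level and a saturating level of protein; the project sought stronger binding though the title names inhibitors; some compounds called inactive have numbers as strong as hits; positive values seem to mean higher polarization but the record does not say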
# Target sequence (P41235 whole entry, looked up): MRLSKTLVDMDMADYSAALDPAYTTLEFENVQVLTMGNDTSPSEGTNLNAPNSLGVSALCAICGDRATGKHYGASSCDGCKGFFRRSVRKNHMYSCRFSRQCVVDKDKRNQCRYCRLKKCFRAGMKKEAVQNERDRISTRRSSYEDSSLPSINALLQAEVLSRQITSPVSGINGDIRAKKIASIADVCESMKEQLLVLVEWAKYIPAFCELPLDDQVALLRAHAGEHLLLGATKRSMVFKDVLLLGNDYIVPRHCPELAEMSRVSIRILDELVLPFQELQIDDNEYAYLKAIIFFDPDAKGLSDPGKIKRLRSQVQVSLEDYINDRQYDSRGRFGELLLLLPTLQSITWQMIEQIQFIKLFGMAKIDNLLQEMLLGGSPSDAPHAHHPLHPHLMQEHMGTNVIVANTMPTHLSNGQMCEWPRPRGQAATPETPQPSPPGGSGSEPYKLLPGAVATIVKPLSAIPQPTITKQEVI
# ALR inh = blocks human ALR sulfhydryl oxidase activity | inhibition, % (no concentration beside the values) | P55789 | AID 485317 | purified ALR, DTT oxidation, H2O2 HRP-luminol luminescence | 290,000 compounds, 3.8% hits;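 active = mean and each replicate at 75% or more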;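 note: stock transfer was 7.5 nL into about 7.5 µL; 0% = neutral wells and 100% = wells with inactivated enzyme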
# Target sequence (P55789 whole entry, looked up): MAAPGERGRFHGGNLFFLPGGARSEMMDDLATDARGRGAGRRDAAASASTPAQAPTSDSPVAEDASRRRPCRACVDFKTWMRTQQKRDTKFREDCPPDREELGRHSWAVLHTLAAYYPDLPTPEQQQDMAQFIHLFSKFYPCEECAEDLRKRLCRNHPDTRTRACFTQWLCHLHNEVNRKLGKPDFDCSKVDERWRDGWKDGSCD
# rRNA inh HTS OD600 = also measured in rRNA inh HTS; calls as there; OD600 change, %; measured here: OD600 growth;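 optical density of the mix in the first replicate; 0 = DMSO median and -100 = no signal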
# rRNA inh HTS RFP = recorded beside rRNA inh HTS, whose call it bears; RFP signal change, %; measured here: RFP humanized mutant strains;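 first replicate; 0 = DMSO median and -100 = no signal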
# The depositor's hits bear a star; i = inactive; · = no result given; & = joins results of further samples. These rows are one share of the data, so the mix of outcomes need not match the whole.
SMILES,E coli growth,rRNA inh HTS,rRNA inh HTS OD600,rRNA inh HTS RFP,Vif A3G,FGF22 binding,AF4-AF9 inh,HNF4A DNA FP,ALR inh
CS(=O)(=O)Nc1cccc(C(=O)OCCCOc2ccc(F)cc2)c1,0.69,-11,-29,-0.2,2%,i,0.1,-2.2,-14
CNC(=O)C12N=CNN=C1N(C)C(=O)N2C (stereo not drawn),0.69,21,15,0.6,30%,i,-0.8,4.7,·
COc1ccc(NC(=O)N(C)C[C@H]2Oc3c(NC(=O)Nc4ccc(F)cc4)cccc3C(=O)N([C@H](C)CO)C[C@H]2C)cc1,·,3,6,-2.2,·,i,0.4,·,·
FC(F)(F)c1nc2ccccc2n2c(-c3ccc(Cl)cc3Cl)nnc12,0.78,·,·,·,1%,·,·,-2.0,-3
CC(C)(C)c1cc(CCC(=O)NN)cc(C(C)(C)C)c1O,0.69,-3,-1,-2.8,0%,i,-0.4,-1.0,-3
COc1cc(/C=C/C(=O)N2CCN(c3n[nH]c(=O)[nH]c3=O)CC2)cc(OC)c1OC,0.68,9,-12,0.2,-4%,i,-2.0,-1.7,-1
Cc1cc(OCCCCCn2ccnc2)cc(C)c1Cl,0.56,-56,-81,-26,1%,i,16,1.8,·
CCCc1cc(=O)[nH]c(SCCOc2ccc(Cl)cc2)n1,0.66,·,·,·,-1%,·,·,-5.6,-2
Cc1ccc(CCNC(=O)C2CCCN(S(=O)(=O)c3cnc[nH]3)C2)cc1 (stereo not drawn),0.73,14,7,1.7,-4%,i,-2.5,0.0,49
COC(=O)CCCC1=CC2=CC(=O)C(C)(OC(=O)c3cccs3)C(=O)C2=CN1C1CC1 (stereo not drawn),0.67,25,14,13,·,i,-6.3,-0.4,-37
O=C(Nc1ccc(Cl)cc1)c1cc(-c2cccs2)on1,0.67,·,·,·,2%,i,-1.4,-2.8,-3
CCN(CC)CCN(C(=O)c1ccccc1OC)c1nc2ccc(F)cc2s1,0.64,-22*,-5.5*,0.5*,12%,i,12,2.9,-3
CC1(C(=O)Nc2cccc3cccnc23)CCN1Cc1cccc2c1OCO2 (stereo not drawn),·,-6,-9,-3.3,·,i,-1.4,-1.5,·
CC=Cc1ccc2n(c1=O)C[C@@H]1[C@@H](CO)[C@H](C(=O)N3CCCCC3)N(Cc3ccccc3)[C@H]21 (mixture of isomers),·,-3,-8,2.3,·,i,2.5,·,·
O=C(COC(=O)COc1ccc2ccccc2c1)NC1CCCc2ccccc21 (stereo not drawn),0.62,7,5,-0.5,-1%,i,-0.2,-3.1,-22
O=C(CCN1C(=O)/C(=C/c2ccc(F)cc2)SC1=S)NCCCn1ccnc1,0.7,-11,7,8.0,·,i,5.1,14,3
C/C(=N\Nc1ccc([N+](=O)[O-])cc1[N+](=O)[O-])c1ccc(-n2nncc2C(C)(C)C)cc1,·,10,2,-0.7,·,i,1.6,-2.3,-7
CNC(=S)NNC(=O)c1sccc1C,0.7,·,·,·,·,·,·,1.3,30
CC(=O)Oc1ccccc1N1C(=O)c2ccc(C(=O)O)cc2C1=O,0.72,·,·,·,1%,·,·,2.5,68
O=C(CNS(=O)(=O)c1cccc2nsnc12)NC1CCCCC1,0.71,·,·,·,-3%,·,·,-2.9,-7
N#Cc1ccc(Cl)cc1NC(=O)CNc1cccc(S(=O)(=O)N2CCCC2)c1,0.69,-2,0,2.3,-2%,i,3.3,-0.9,·
Cc1c(N/C(=N/S(=O)(=O)c2cc([N+](=O)[O-])ccc2Cl)c2ccccc2)c(=O)n(-c2ccccc2)n1C,0.67,14,18,0.7,1%,i,-0.1,-2.0,-14
Cn1c(CCNS(=O)(=O)c2ccc(F)cc2)nnc1SCc1cccnc1,0.68,6,14,-1.0,·,i,-2.2,-4.2,·
O=S(=O)(c1cccc(COc2ccc(Cl)cc2Cl)c1)N1CCOCC1,0.71,0,1,-1.3,·,i,-3.9,2.1,0
COc1cc(CNC(=O)c2ccc3c(c2)S(=O)(=O)c2ccccc2C3=O)cc(OC)c1,0.65,·,·,·,·,·,·,1.4,-6
c1ccc(N=NN2CCOCC2)cc1,·,8,18,-3.3,0%,i,-1.8,1.8,·
CN(CC(=O)Nc1cccc(F)c1)C(=O)CCc1nc2cc(S(=O)(=O)N3CCOCC3)ccc2n1C,0.65,12,7,2.4,-2%,i,-15,-3.1,0
CC(C)c1c(C(=O)N/N=C/c2ccc(C(F)(F)F)cc2)nnn1-c1nonc1N,·,3,-44,10,·,i,-7.7,2.8,-1
CCOC(=O)C1CCCCN1Cc1cn[nH]c1-c1ccc(F)cc1F (stereo not drawn),0.62,2,1,1.4,-5%,i,-13,-2.4,5
O=C(CSc1ncnc2sc3c(c12)CCCCC3)NCc1ccco1,0.67,·,·,·,4%,·,·,-0.2,2
CCOC(=O)N1CCC(NC(=O)C(NS(=O)(=O)c2ccc3c(c2)CCN3C(C)=O)C(C)C)CC1 (stereo not drawn),0.68,·,·,·,11%,·,·,1.7,-4
COc1ccc(N2C(=O)NC3CC2(C)Oc2ccccc23)cc1OC (stereo not drawn),0.77,·,·,·,-4%,·,·,-0.7,-10
O=C(c1ccc(N2C(=O)CCC2=O)cc1)N1CCOCC1,0.64,·,·,·,5%,·,·,-1.1,-5
O=C(CCC1CCCN(C(=O)c2ccoc2)C1)NCc1ccccc1F (stereo not drawn),0.68,-2,-6,-16,-5%,i,-1.2,4.2,-13
O=C(N/N=C/c1ccncc1)C12CC3CC(CC(C3)C1)C2,·,2,4,-2.0,-8%,i,-0.2,0.4,·
CCN(CC)S(=O)(=O)c1cc([N+](=O)[O-])ccc1NNC(=O)Nc1ccccc1OC,0.75,·,·,·,14%,·,·,-0.7,-6
O=C(C[C@@H]1C[C@@H]2c3cc(NC(=O)Nc4ccc(C(F)(F)F)cc4)ccc3O[C@@H]2[C@H](CO)O1)NCc1cc(F)ccc1F,·,-5,-3,-2.3,·,i,-32,·,·
O=C(Cc1cccc(NC(=O)C2CCN(C(=O)C3CCCCC3)CC2)c1)Nc1cccc(C(=O)N2CCOCC2)c1,0.68,13,8,0.3,-9%,i,-3.9,-3.5,·
CCOC(=O)c1c(C)[nH]c(C(=O)OCC(=O)Nc2cc(Cl)ccc2OC)c1C,0.73,·,·,·,-1%&5%,·,·,1.3,-2
O=C(O)c1nc(-c2ccccc2)n(-c2cccc(C(F)(F)F)c2)n1,0.68,23,4,0.9,·,i,-1.4,1.4,-13
Cc1ccc(S(=O)(=O)Nc2ccc(-c3cn4ccc(C)cc4n3)cc2)cc1,0.72,5,-3,0.2,·,i,-3.6,1.2,1
Cn1nc(C(=O)NCC2CCCO2)c2ccccc2c1=O (stereo not drawn),0.66,·,·,·,1%,·,·,4.9,-16
COc1ccc(CN(C)C[C@@H]2Oc3ccc(NC(=O)Cn4cnnn4)cc3CC(=O)N([C@@H](C)CO)C[C@H]2C)cc1,·,0,-3,-1.5,·,i,6.2,·,·
O=C(O)c1ccccc1NC(=S)NC(NC(=O)c1ccccc1[N+](=O)[O-])C(Cl)(Cl)Cl (stereo not drawn),0.69,·,·,·,1%,·,·,4.1,-2
CCCCNC(=O)C[C@H]1C[C@@]2(C(=O)OC)C(=C[C@H](C(C)(C)C)O[C@@H]2C)N(Cc2ccc3c(c2)OCO3)C1=O,·,8,-3,11,·,i,2.3,·,·
CCn1c(SCC(=O)N2CCN(C(=O)c3ccco3)CC2)nnc1C(C)C,0.65,14,17,0.7,-2%,i,-0.3,-2.1,-3
COc1ccc([C@H]2CC(=O)C=C(c3ccc4ncccc4c3)C2)cc1,·,-6,-5,-8.0,·,i,-1.8,0.8,-10
COc1ccc(-n2c(CNc3ccc(C)cc3)nnc2SCC(=O)Nc2nc(-c3ccccc3)cs2)cc1,0.67,·,·,·,25%,·,·,-0.9,-6

# Ordered by value in Vif A3G (low to high): some entries from above
Molecule | E coli growth | rRNA inh HTS | rRNA inh HTS OD600 | rRNA inh HTS RFP | Vif A3G | FGF22 binding | AF4-AF9 inh | HNF4A DNA FP | ALR inh
O=C(CCC1CCCN(C(=O)c2ccoc2)C1)NCc1ccccc1F (stereo not drawn) | 0.68 | -2 | -6 | -16 | -5% | i | -1.2 | 4.2 | -13
COc1cc(/C=C/C(=O)N2CCN(c3n[nH]c(=O)[nH]c3=O)CC2)cc(OC)c1OC | 0.68 | 9 | -12 | 0.2 | -4% | i | -2.0 | -1.7 | -1
O=C(CNS(=O)(=O)c1cccc2nsnc12)NC1CCCCC1 | 0.71 | · | · | · | -3% | · | · | -2.9 | -7
CN(CC(=O)Nc1cccc(F)c1)C(=O)CCc1nc2cc(S(=O)(=O)N3CCOCC3)ccc2n1C | 0.65 | 12 | 7 | 2.4 | -2% | i | -15 | -3.1 | 0
FC(F)(F)c1nc2ccccc2n2c(-c3ccc(Cl)cc3Cl)nnc12 | 0.78 | · | · | · | 1% | · | · | -2.0 | -3
CS(=O)(=O)Nc1cccc(C(=O)OCCCOc2ccc(F)cc2)c1 | 0.69 | -11 | -29 | -0.2 | 2% | i | 0.1 | -2.2 | -14
O=C(c1ccc(N2C(=O)CCC2=O)cc1)N1CCOCC1 | 0.64 | · | · | · | 5% | · | · | -1.1 | -5

# Next section:
SMILES,E coli growth,rRNA inh HTS,rRNA inh HTS OD600,rRNA inh HTS RFP,Vif A3G,FGF22 binding,AF4-AF9 inh,HNF4A DNA FP,ALR inh
CC(NC(=O)CCNC(=O)N1CCn2c1nc1ccccc12)c1ccccc1 (stereo not drawn),0.66,3,11,0.4,·,i,-0.3,2.7,97*
CCOC(=O)c1c(C)[nH]c(=S)c(C#N)c1-c1ccc(Cl)cc1,0.67,-8,-16,-2.8,·,i,-2.7,3.2,29
CS(=O)(=O)N1CCCC(C(=O)NCc2ccc(F)cc2Cl)C1 (stereo not drawn),0.71,·,·,·,1%,·,·,-0.3,-2
CC1(C)CC(O)(CCNCc2ccc3c(c2)OCO3)CCO1 (stereo not drawn),0.73,·,·,·,-10%,·,·,5.3,1
FC(F)(F)c1cc(Cl)c2nc(-c3cccc(Cl)c3)c(Cc3cccc(Cl)c3)n2c1,·,12,8,1.6,·,i,1.3,5.9,·
CC1(c2nnc(-c3cccc(Cl)c3)o2)CC(c2ccc(Cl)cc2)=NO1 (stereo not drawn),0.7,-7,-22,-2.5,·,i,-9.0,0.6,0
Cn1nc(C(=O)NNC(=O)c2ccc(Cl)cc2)ccc1=O,0.67,0,0,-1.0,-1%,i,11,-4.9,3

# Screening results (PubChem BioAssay)
